# StopGo reporter = High Throughput Screening for Foot and Mouth Disease Virus Antivirals; Potency, µM (series often up to 57.9 µM), without a hit: at the highest dose signal change, negative = less light; 410,000 tested, 1.2% active; AID 1159524, 2015; human cells with a luciferase reporter of 2A StopGo recoding; control for the full effect not named in the record; active = well fitted falling curve with a large enough effect; inconclusive = small, poorly fitted or top-dose-only effect; inactive = no such curve, though single readings can be large or run the other way; tested in HEK293T cells; also: nearly all actives have a fitted effect of over 45% in size; luciferase light after 4 h
# Cruzain noTriton = qHTS Assay for Promiscuous and Specific Inhibitors of Cruzain (without detergent) | Potency, µM, for inactives: max response, negative = inhibition, most hits filed as inhibitors | AID 1476, 2009 | purified cruzain, Z-FR-AMC fluorescence, no detergent | 200,000 tested, 2.3% active | Cruzipain (Trypanosoma cruzi), P25779;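 also: plate controls were enzyme without inhibitor for no effect and buffer without enzyme for full effect; nearly all actives have a fitted effect of over 40% in size; top concentration of the series not given in the record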
# Target sequence (P25779 123-467 limits assumed): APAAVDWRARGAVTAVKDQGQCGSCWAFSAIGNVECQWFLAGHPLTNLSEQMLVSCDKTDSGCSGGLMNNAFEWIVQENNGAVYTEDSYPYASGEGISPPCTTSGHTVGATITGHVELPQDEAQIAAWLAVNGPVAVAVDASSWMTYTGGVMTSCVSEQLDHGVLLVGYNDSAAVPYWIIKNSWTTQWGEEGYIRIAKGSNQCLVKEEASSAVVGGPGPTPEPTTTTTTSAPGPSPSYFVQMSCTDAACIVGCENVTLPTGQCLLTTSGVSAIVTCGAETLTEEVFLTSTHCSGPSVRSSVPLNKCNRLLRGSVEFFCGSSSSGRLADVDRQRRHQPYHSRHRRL
#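 Purified cruzain at 1.5 nM, pre-incubated 15 min with compound at room temperature in 100 mM sodium acetate pH 5.5, 5 mM DTT, 0.00005% Triton X-100. Reaction started with 2 uM Z-FR-AMC; AMC fluorescence increase over 60 s gives rate.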
# Cruzain inh Det = qHTS Assay for Promiscuous and Specific Inhibitors of Cruzain (with detergent) | 200,000 tested, 0.43% active | Potency, µM, for the others: max response, negative = inhibition, usual class: inhibitors | purified cruzain, Z-FR-AMC fluorescence, 0.01% Triton | Cruzipain (Trypanosoma cruzi), P25779;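 also: plate controls were neutral wells for no effect and buffer without enzyme for full effect; nearly all actives have a fitted effect of over 40% in size; top concentration of the series not given in the record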
#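 Steps: dispense cruzain (1.5 nM final) in acetate buffer pH 5.5 with DTT and 0.01% Triton X-100; pin-transfer compounds; incubate 15 min RT; add Z-FR-AMC (2 uM final); read fluorescence every 30 s, using the 60 s intensity change.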
# Active calls of the source: *; ? = inconclusive; & = joins results of further samples; [ ] = another dose, or the depositor's remark. Unless noted, calls follow the shape of the dose curve; as a rule, active = well fitted curve in the direction sought with a large enough effect; inconclusive = small, poorly fitted or top-dose-only effect, or another doubt; inactive = no such curve, though single readings can be large; an effect the other way counts as inactive or inconclusive. Unless noted, % is scaled to controls: 0 for no effect and ±100 for the full control effect; potency is read from the fitted curve at half-maximal effect.
SMILES,StopGo reporter,Cruzain noTriton,Cruzain inh Det
CC1OC(OC2C(CO)OC(OC3C(CO)OC(O)C(O)C3O)C(O)C2O)C(O)C(O)C1NC1C=C(CO)C(O)C(O)C1O (stereo not given),-6%&-2%,2%,-5.0%
Cc1cnc(CNc2cc(-c3cccnc3)ncn2)cn1,0%,0%,5.1%
Cc1cnc(CNc2cc(-c3cccc(NS(C)(=O)=O)c3)ncn2)cn1,-9%,-9%,-7.8%
Cc1noc(C)c1C(=O)N1CCC[C@@]2(CCN(Cc3cc(C(F)(F)F)cc(C(F)(F)F)c3)C2)C1,-13%,21%,2.6%
C[C@@H]1C(=O)CC2C(C)(C)CCC[C@]2(C)[C@@]1(O)CCc1ccoc1 (stereo not given in full),-9%,-7%,-3.3%
O=C(O)/C=C1\CCCc2ccccc2[C@H]1O,?,-1%,6.4%
CC1=CCc2c(cc3oc(C)cc(=O)c3c2O)OC1,17%,8%,-8.2%
COc1ccc(C(=O)N2CCC3(CCCN(CC(C)C)C3)CC2)cc1,1%,0%,3.8%
CC(=O)OCC1OC(n2cnc3c(Cl)nc(Cl)nc32)C(OC(C)=O)C1OC(C)=O (stereo not given),-23%,1%,-6.2%
c1ccc2c(NCCN3CCOCC3)nc(-c3ccoc3)nc2c1,9%,5%,2.6%
CC(C)n1cnc2c(C(=O)N[C@H]3CN4CCC3CC4)cc(Cl)cc21,-1%,3%,-0.5%
NC(=O)c1ccc[n+]([C@@H]2OC(COP(=O)([O-])OP(=O)(O)OCC3OC(n4cnc5c(N)ncnc54)C(O)C3O)C(O)C2O)c1 (stereo not given in full),14%,-13%,0.9%
c1ccc(N2CCN(CCCOc3ccc4c(c3)OCO4)CC2)cc1,0%&-14%,4%,2.8%
COc1ccc(Oc2ncc3nc(C)c(=O)n(C[C@H]4CCCO4)c3n2)cc1,-30%,-6%,-6.1%
COc1cccc(Nc2ncc3nc(-c4ccc(Cl)cc4)c(=O)n(C[C@H]4CCCO4)c3n2)c1,-11%,4%,-1.6%
Clc1ccccc1-c1nccc(NCc2ccccc2)n1,10%,20%,-4.5%
N[C@]1(C(=O)O)CCc2cc(P(=O)(O)O)ccc21,-15%,-6%,-0.2%
c1cncc(-c2nc(N3CCNCC3)c3ccccc3n2)c1,-4%,1%,-1.4%
O=C(O)COc1ccc(OCCNC[C@@H](O)COc2ccccc2)cc1,-7%,7%,-0.5%
NCCn1c(=O)c(CCc2ccccc2)nc2cncnc21,-8%,-14%,1.9%

# Part of the list above in another layout.
mol | StopGo reporter | Cruzain noTriton | Cruzain inh Det
NCCn1c(=O)c(CCc2ccccc2)nc2cncnc21 | -8% | -14% | 1.9%
O=C(O)COc1ccc(OCCNC[C@@H](O)COc2ccccc2)cc1 | -7% | 7% | -0.5%
c1ccc(N2CCN(CCCOc3ccc4c(c3)OCO4)CC2)cc1 | 0%&-14% | 4% | 2.8%
COc1ccc(Oc2ncc3nc(C)c(=O)n(C[C@H]4CCCO4)c3n2)cc1 | -30% | -6% | -6.1%
CC(C)n1cnc2c(C(=O)N[C@H]3CN4CCC3CC4)cc(Cl)cc21 | -1% | 3% | -0.5%
Clc1ccccc1-c1nccc(NCc2ccccc2)n1 | 10% | 20% | -4.5%
O=C(O)/C=C1\CCCc2ccccc2[C@H]1O | ? | -1% | 6.4%

# Additional entries
SMILES,StopGo reporter,Cruzain noTriton,Cruzain inh Det
COCCNc1cc(-c2ccccc2CN(C)C)ncn1,1%,9%,3.6%
CN1CCCC2(CCN(C(=O)c3cccn3C)CC2)C1,8%,2%,4.5%
O=c1c(-c2ccc(F)cc2)nc2cncnc2n1C1CC1,-10%,3%,1.2%
Cc1nc2cnc(Oc3ccccc3)nc2n(C2CC2)c1=O,-22%,-16%,-2.8%
Cn1cccc1C(=O)N1CCC2(CCCN(C(c3ccccc3)c3ccccc3)C2)CC1,-21%,3%,-2.2%
O=c1cnc2cnc(N3CCNCC3)nc2n1Cc1ccc(F)cc1,-8%,-9%,-6.8%
O=C(Nc1cccc(F)c1)N1CC2(CCN(C(=O)c3cnccn3)CC2)C1,-5%,-17%,2.5%
O=C(Oc1cc(OC(=O)c2ccccc2)c2c(c1)OC(c1ccc(OC(=O)c3ccccc3)c(OC(=O)c3ccccc3)c1)[C@@H](OC(=O)c1ccccc1)C2)c1ccccc1 (stereo not given in full),7%,?,6.9%
CN1C(=O)COc2c(C(=O)N[C@@H]3CN4CCC3CC4)cc(Cl)cc21,-2%,5%,-1.5%
COc1ccc(-n2c(=O)c(C)nc3cnc(Nc4cccc(OC)c4)nc32)cc1,-27%,?,-10%
CC(N)[C@H](O)c1ccccc1 (stereo not given in full),-1%,?,2.2%
COc1ncc2nc(CCc3ccccc3)c(=O)n(CCc3ccccc3)c2n1,27%,9%,-0.7%
COCCn1c(=O)c(CCc2ccccc2)nc2cnc(Oc3cccc(Cl)c3)nc21,26%,7%,-2.5%
O=C(c1ccco1)N1CCC2(CC1)CN(c1ccc(-c3ccccc3)cc1)C2,-23%,2%,-2.7%
N[C@@H](C(=O)O)c1ccc(O)c(C(=O)O)c1,1%,9%,3.9%
COc1ccc(C(=O)N2CCC3(CCCN(Cc4nccs4)C3)CC2)cc1,7%,-4%,3.1%
CS(=O)(=O)N1CCC2(CC1)CN(c1ccncc1)C2,-4%,9%,-1.1%
Clc1ccccc1-c1nc(Nc2ccncc2)c2ccccc2n1,-25%,6%,-6.4%
COCCn1c(=O)c(-c2cccs2)nc2cnc(Oc3cccc(Cl)c3)nc21,-20%,6%,1.1%
CC1(C)C(C=C(Cl)Cl)C1C(=O)OC(C#N)c1cccc(Oc2ccccc2)c1 (stereo not given),-7%,-7%,6.3%
CN(C)c1ncc2ncc(=O)n(CCC#N)c2n1,-28%,3%,-5.1%
O=C(Nc1cccc(F)c1)N1CCC2(CC1)CCN(C(=O)c1ccncc1)CC2,-13%,8%,0.7%
COc1cccc(Cn2c(=O)c(-c3cccc(C#N)c3)nc3cnc(N4CCN(C)CC4)nc32)c1,-3%,3%,-3.6%
CC(=O)N1CCC2(CCCN(C(c3ccccc3)c3ccccc3)C2)CC1,-24%,-2%,-3.4%
CC(C)Oc1cccc(-n2c(CCc3c[nH]c4ccc(Br)cc34)nc3ccccc3c2=O)c1,-30%,32µM*,4.8%
CC[N+](C)(CC)CC(=O)Nc1c(C)cccc1C,-22%,7%,-4.3%
COc1ccccc1CNc1ncnc2ccc(-c3ccc(N(C)C)cc3)cc12,-30%,-15%,-7.2%
Clc1ccccc1-c1nc(NCc2cccnc2)c2ccccc2n1,0%,12%,-3.2%
COc1ccc(C(=O)N2CCC3(CCN(C(=O)Nc4cccc(C#N)c4)CC3)CC2)cc1,-15%,15%,-3.0%
O=C1C=C(O)c2ccccc2C1=O,7%&-9%,-9%&-24%,-4.8%&-14%
CN(C)c1ncnc2ccc(-c3cccc(NS(C)(=O)=O)c3)cc12,-22%,-12%,-4.9%
O=C(Nc1ccccc1)N1CC2(CCN(C(=O)c3cnccn3)CC2)C1,25%,-4%,0.7%
CS(=O)(=O)Nc1cccc(-c2cc(NCc3ccccc3)ncn2)c1,-1%,-1%,-2.7%
O=C(c1cnccn1)N1CCC2(CCCN(c3cccc(-c4ccccc4)c3)C2)CC1,-20%,?,-6.9%
CC1(C)CC2C1CCC1(C)OC1CCC2(C)O (stereo not given),-3%,-3%,8.8%
COC(=O)N1CCC2(CCCN(c3cccc(-c4ccccc4)c3)C2)CC1,-9%,13%,-2.6%
N#Cc1cccc(-c2nc(Nc3ccncc3)c3ccccc3n2)c1,-14%,6%,2.8%
N#CC(C#N)=NNc1ccc(OC(F)(F)F)cc1,?,4%,?
Nc1nc2ncc(=O)[nH]c2c(=O)[nH]1,1%,2%,8.6%
COc1ccccc1-c1ccc2ncnc(NC3CCNCC3)c2c1,2%,7%,5.0%

# Single values from the results shown.
# StopGo reporter result of CN(C)c1ncc2ncc(=O)n(CCC#N)c2n1 reads -28%
# Cruzain inh Det result of CS(=O)(=O)Nc1cccc(-c2cc(NCc3ccccc3)ncn2)c1 reads -2.7%
# Cruzain noTriton result of CC(=O)N1CCC2(CCCN(C(c3ccccc3)c3ccccc3)C2)CC1 reads -2%

# (next part)
SMILES,StopGo reporter,Cruzain noTriton,Cruzain inh Det
Cc1nc2ccc(NC(=O)Nc3ccnc4cccnc34)cc2o1,9%,14%,-0.9%
COC1=C(OC)C(=O)C(C/C=C(\C)CC/C=C(\C)CC/C=C(\C)CC/C=C(/C)CC/C=C(\C)CC/C=C(\C)CC/C=C(\C)CC/C=C(\C)CC/C=C(\C)CCC=C(C)C)=C(C)C1=O,-1%,-11%,2.4%
COc1ccccc1CNc1ncncc1-c1ccc2c(c1)OCO2,-13%,5%,2.1%
CN(C)c1ncc2ncc(=O)n(CCc3ccccc3)c2n1,?,-12%,-4.9%
COc1c(O)cc2oc3cc(O)c(CC=C(C)C)c(O)c3c(=O)c2c1CC=C(C)C,-11%&6%,?,1.8%&1.5%&6.9%
O[N+]1=CC=CCC1=S.On1ccccc1=S.[Zn],8.9µM*,2.5µM*,3.2µM*
CC(=O)OCC(=O)[C@@]1(O)CCC2C3CCC4=CC(=O)CC[C@@]4(C)[C@]3(F)C(O)C[C@]21C (stereo not given in full),47%[activator],-2%,0.6%
CNc1ncnc2ccc(-c3cccc(NS(C)(=O)=O)c3)cc12,-19%,-6%,-4.9%
NCC(N)C(=O)c1ccccc1 (stereo not given),-3%,-9%,-5.6%
O=C(c1ccncc1)N1CCC2(CCCN(c3ccncc3)C2)CC1,-5%,-4%,-1.0%
COc1ccc(-n2c(=O)c(-c3cn(C)c4ccccc34)nc3cncnc32)cc1,21%,-22%,-8.3%
COCCn1c(=O)c(-c2ccc(F)cc2)nc2cnc(Oc3cccc(Cl)c3)nc21,20%,-11%,0.1%
COc1ccccc1CNc1ncncc1-c1ccccc1C,-17%,3%,-2.4%
C[C@]12CCC3C(C=CC4=CC(=O)CC[C@]43C)C1CC[C@]2(O)CCC(=O)O (stereo not given in full),-7%,-5%,-3.0%
CN(Cc1ccco1)c1ccnc(-c2cccnc2)n1,5%,4%,0.6%
CS(=O)(=O)Nc1cccc(-c2ccc3ncnc(Nc4ccc(F)cc4)c3c2)c1,?,2%,-5.6%
COc1ccc(-c2nc3cnc(N4CCNCC4)nc3n(CCc3ccccc3)c2=O)cc1,-10%,1%,2.0%
COc1cccc(-c2cncnc2NCc2cccc(C)c2)c1,-17%,-2%,3.6%
CC(=O)OC1CC(O)C(C)(C)C2CC(OC(C)=O)[C@]3(C)C(CC[C@@]4(C)C(c5ccoc5)OC(=O)C5OC534)[C@]12C (stereo not given in full),-11%,?,-3.9%
C=C1[C@@H](O)C2C=CC[C@H](C)C(=O)[C@@](C)(O)C=C[C@@H](OC(C)=O)[C@@]23C(=O)N[C@H](Cc2ccccc2)[C@@H]3[C@@H]1C (stereo not given in full),-25%,15%,-2.0%
N#Cc1ccc(CN2CCC3(CC2)CCN(C(=O)c2ccco2)CC3)cc1,-18%,1%,1.0%
COc1ccc(Oc2ncc3nc(-c4ccc(OC)cc4)c(=O)n(C4CC4)c3n2)cc1,-13%,0%,0.4%
O=c1cnc2cnc(N3CCNCC3)nc2n1C1CC1,-17%,-16%,-12%
COc1c(-c2coc3cc4c(cc3c2=O)CC(OC(C)=O)C(C)(C)O4)ccc2c1C=CC(C)(C)O2 (stereo not given),?,?,-6.7%
CCNc1ncc2nc(-c3ccc(Cl)cc3)c(=O)n(-c3ccc(OC)cc3)c2n1,-5%,-8%,-3.8%
CS(=O)(=O)Nc1cccc(-c2nccc(Nc3ccc(F)cc3)n2)c1,-4%,2%,-7.1%
COc1ncc2nc(C)c(=O)n(CCc3ccccc3)c2n1,-14%,6%,1.0%
CCNc1ncc2nc(CCc3ccccc3)c(=O)n(-c3ccccc3)c2n1,0%,29%,3.2%
COCCn1c(=O)c(-c2cc(F)cc(F)c2)nc2cnc(N3CCN(C)CC3)nc21,-6%,-20%,-8.2%
COc1ccc(-c2nc3cnc(N4CCN(C)CC4)nc3n(CCc3ccccc3)c2=O)cc1,-12%,7%,-6.2%
COc1cccc(-c2ccc3ncnc(NCc4ccc(OC)cc4OC)c3c2)c1,11%,11%,-1.8%
O=c1c(-c2ccc(Cl)cc2)nc2cnc(N3CCOCC3)nc2n1C[C@H]1CCCO1,-11%,5%,0.3%
C=CC(C1=CC(=O)C(OC)=CC1=O)c1ccc(OC)cc1 (stereo not given),45%[activator],-7%,-9.7%
Clc1ccccc1-c1nc(NCc2cccs2)c2ccccc2n1,-11%,-7%,-19%

# Screens as filed in PubChem.

# Some of the compounds tested, so the mix of outcomes need not match the whole.
